HPGD block – qHTS Assay for Inhibitors of HPGD (15-Hydroxyprostaglandin Dehydrogenase); Potency, µM, without a hit: at the highest dose activity change, negative = inhibition, most hits filed as inhibitors; AID 894, 2007; purified HPGD, NADH fluorescence kinetic, PGE2 substrate; 15-hydroxyprostaglandin dehydrogenase [NAD(+)] (Homo sapiens), P15428; 150,000 compounds, 4.3% hits; active = well fitted inhibition curve with a large enough effect (not every such curve was filed as active); inconclusive = small, poorly fitted or top-dose-only effect, or another doubt; inactive = no such curve, though single readings can be large or run the other way;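 also: top concentration of the series not given in the record; plate controls included wells without enzyme; inactives centre near -10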
Target sequence (P15428 whole entry, looked up): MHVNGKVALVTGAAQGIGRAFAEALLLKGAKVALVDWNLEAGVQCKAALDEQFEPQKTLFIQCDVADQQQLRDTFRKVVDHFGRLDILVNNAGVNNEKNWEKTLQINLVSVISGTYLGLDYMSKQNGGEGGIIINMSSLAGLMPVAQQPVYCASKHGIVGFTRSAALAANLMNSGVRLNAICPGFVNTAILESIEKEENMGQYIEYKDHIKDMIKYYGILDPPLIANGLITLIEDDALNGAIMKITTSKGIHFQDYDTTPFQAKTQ
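NADH formation kinetics: reaction with 30 uM PGE2 and 1 mM NAD+ (final), 20 nM enzyme, Tris-HCl pH 8 with Tween 20, after 15 min compound preincubation at room temperature. Fluorescence change, last versus first of five reads.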
An asterisk follows results filed as active; ? = inconclusive. % is scaled to controls: 0 for no effect and ±100 for the full control effect; potency is read from the fitted curve at half-maximal effect. Not all compounds are listed (hit frequency here may not be typical).

SMILES | HPGD block
COc1ccc(Oc2nc(SC)nc3ccsc23)cc1 | 0%
c1ccc(Sc2cccc3ccccc23)c(CNC2=NCCN2)c1 | 4%
CCOC(=O)/C(=C/c1ccc(OC(=O)c2ccccc2)cc1)C(C)=O | ?
Cc1ccc(CSc2nnc(Nc3ccc(C)cc3)s2)cc1 | -15%
CCCCC1=CC2=C(c3ccco3)C(=O)C(C)(OC(=O)c3ccc(OC)cc3)C(=O)C2=CN1Cc1ccc2c(c1)OCO2 (stereo unspecified) | -8%
Cc1nnc(NC(=O)c2ccc(S(=O)(=O)N3CCCCCC3)cc2)o1 | -8%
Cc1ccc(C)c(NC(=S)NCc2ccc3c(c2)OCO3)c1 | -21%
Cc1ccc(S(=O)(=O)Nc2cc(=O)[nH]c3c2CCC3)cc1 | -3%
Cc1onc(-c2ccccc2)c1C(=O)NC1C(=O)N2C(C(=O)O)C(C)(C)S[C@@H]12 (stereo partly specified) | -6%
CN1CCN(C2=CC(=O)OC23CCCCC3)CC1 | -5%

Five of the compounds above, with the structure last:
HPGD block	SMILES
?	CCOC(=O)/C(=C/c1ccc(OC(=O)c2ccccc2)cc1)C(C)=O
-6%	Cc1onc(-c2ccccc2)c1C(=O)NC1C(=O)N2C(C(=O)O)C(C)(C)S[C@@H]12 (stereo partly specified)
0%	COc1ccc(Oc2nc(SC)nc3ccsc23)cc1
-8%	CCCCC1=CC2=C(c3ccco3)C(=O)C(C)(OC(=O)c3ccc(OC)cc3)C(=O)C2=CN1Cc1ccc2c(c1)OCO2 (stereo unspecified)
-15%	Cc1ccc(CSc2nnc(Nc3ccc(C)cc3)s2)cc1

Seven of the compounds above, as tab-separated lines.
compound	HPGD block
CCOC(=O)/C(=C/c1ccc(OC(=O)c2ccccc2)cc1)C(C)=O	?
COc1ccc(Oc2nc(SC)nc3ccsc23)cc1	0%
CN1CCN(C2=CC(=O)OC23CCCCC3)CC1	-5%
Cc1ccc(CSc2nnc(Nc3ccc(C)cc3)s2)cc1	-15%
CCCCC1=CC2=C(c3ccco3)C(=O)C(C)(OC(=O)c3ccc(OC)cc3)C(=O)C2=CN1Cc1ccc2c(c1)OCO2 (stereo unspecified)	-8%
Cc1ccc(C)c(NC(=S)NCc2ccc3c(c2)OCO3)c1	-21%
Cc1onc(-c2ccccc2)c1C(=O)NC1C(=O)N2C(C(=O)O)C(C)(C)S[C@@H]12 (stereo partly specified)	-6%

More records
SMILES | HPGD block
CCOC(=O)c1ccccc1NC(=O)CN(c1ccccc1C)S(C)(=O)=O | -12%
Cc1cc(NCCN2CCOCC2)n2nc(C)c(-c3ccc(Cl)cc3)c2n1 | ?
CC(NC(=O)C12CC3CC(CC(C3)C1)C2)c1ccc2c(c1)OCCO2 (stereo unspecified) | -15%
O=C(c1cn(-c2ccccc2)nc1-c1ccc(Cl)s1)N1CCOCC1 | -17%
O=C(NNS(=O)(=O)c1ccccc1[N+](=O)[O-])c1ccc(O)cc1 | 13µM*
CCOC(=O)C1CCCCN1Cc1cccc(OC)c1OC (stereo unspecified) | 6%
Cc1cc(CNC(=O)c2cc(Br)ccc2Cl)nn1C | -3%
O=C(Cn1c(C(=O)N2CCc3ccccc3C2)cc2sccc21)c1ccccc1 | -7%
Cc1cc(C)c(Nc2cc(S(=O)(=O)O)c(N)c3c2C(=O)c2ccccc2C3=O)c(C)c1 | ?
CCCCn1c(SCC(=O)N2CCCC2)nnc1-c1ccccc1 | -12%
Cc1nnc(NC2CCCCC2)[nH]c1=O | -12%
COc1ccccc1N1CCN(C(=O)CSc2nnc3c4ccccc4nc(Cc4ccccc4)n23)CC1 | -14%
O=C1c2cccnc2C(Nc2ccc(S(=O)(=O)N3CCCCCC3)cc2)N1Cc1ccccc1 (stereo unspecified) | -9%
N#CC1=C(N)Oc2c(oc(CO)cc2=O)C1c1ccsc1 (stereo unspecified) | -20%
c1cncc(CSc2ncnc3nc[nH]c23)c1 | -3%
Cc1cc(C)cc(N=Cc2ccc([N+](=O)[O-])s2)c1 | -10%
CC(C)CC(=O)Nc1nnc(SCC(=O)Nc2ccc3c(c2)OCO3)s1 | -4%
Cc1ccc(-c2nc3cccnc3s2)cc1NS(=O)(=O)c1ccc2c(c1)CCCC2 | ?
CN(C)CCC(=O)c1ccc(Cl)cc1 | 16µM*
CC(C)N(CCn1c(=S)[nH]c2ccccc2c1=O)C(C)C | -7%

7 entries picked at random from the list so far:
SMILES | HPGD block
COc1ccccc1N1CCN(C(=O)CSc2nnc3c4ccccc4nc(Cc4ccccc4)n23)CC1 | -14%
N#CC1=C(N)Oc2c(oc(CO)cc2=O)C1c1ccsc1 (stereo unspecified) | -20%
Cc1nnc(NC2CCCCC2)[nH]c1=O | -12%
c1cncc(CSc2ncnc3nc[nH]c23)c1 | -3%
Cc1ccc(-c2nc3cccnc3s2)cc1NS(=O)(=O)c1ccc2c(c1)CCCC2 | ?
Cc1cc(C)cc(N=Cc2ccc([N+](=O)[O-])s2)c1 | -10%
CN(C)CCC(=O)c1ccc(Cl)cc1 | 16µM*

(continued)
SMILES | HPGD block
Cc1ccc2c(c1)/C(=N/N1C(=O)c3ccccc3C1=O)C(=O)N2 | -6%
O=C1C2C(c3ccccc3)C=CC(c3ccccc3)C2C(=O)N1CCCO (stereo unspecified) | -9%
CCN1CCN(C(=O)Cn2ncc3c2-c2ccccc2OC3)CC1 | -5%
Cc1cc(C(C)(C)C)oc1C(=O)NCCCNC(=O)c1oc(C(C)(C)C)cc1C | -19%
COc1c(F)c(F)c(C(=O)Nc2ccc(N3CCN(C(C)=O)CC3)c(Cl)c2)c(F)c1F | -4%
Cc1cc([N+](=O)[O-])nn1CCCC(=O)Nc1sc2c(c1C(N)=O)CCC(C)C2 (stereo unspecified) | 16µM*
CCOC(=O)C(Cc1ccccc1)NC(=O)CNC(=O)CNC(=O)OCc1ccccc1 (stereo unspecified) | -11%
Cc1ccc(-c2cc(C(=O)N/N=C/c3ccco3)[nH]n2)cc1 | -9%
COc1cc(-c2nc(C(F)(F)F)c(OC)o2)cc(OC)c1OC | ?
Cn1c(C(=O)N2CCCC(C(=O)NCCN3CCOCC3)C2)cc2sccc21 (stereo unspecified) | -9%
CC(Sc1nnc2c(n1)C1(C)CCC2C1(C)C)C(=O)Nc1ccccc1 (stereo unspecified) | -12%

Compound activity from PubChem.
